# Screens as filed in PubChem.
# Six1-Eya2 inh: blocks human Six1 binding to Eya2. Q15475+O00167. AlphaScreen GST-Six1/His-Eya2 binding, biochemical; hits give low values; control for the full effect not named in the record. activity change, % (no concentration beside the values). hit rate 0.56% among 360,000. AID 651725; in the data active = activity change below about -65%; inconclusive = about -30% to -65%; inactive = above about -30%; also: % is scaled to controls: 0 for no effect and ±100 for the full control effect; compound concentration not given in the record
#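 Homogeneous AlphaScreen proximity assay pairing GST-Six1 with His-tagged Eya2 (added as 5X mix: 250 nM and 500 nM) in 50 mM Tris pH 8.0, 300 mM NaCl, 1 mM TCEP. Glutathione donor and nickel acceptor beads; 1 h, 37 °C, dark.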
# D2 PAM: human D2 receptor positive allosteric modulation | DiscoveRx D2 beta-arrestin cells, luminescence, 90 min; 100% = 57 uM dopamine signal | AID 624464 | hit rate 0.23% among 360,000 | potentiation, % (no concentration beside the values) | P14416; active = potentiation of 50% or more; inconclusive = 30% to 50%; inactive = 30% or less;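 also: compound concentration not given in the record; tested on top of an EC20 dose of dopamine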
# Target sequence (P14416 whole entry, looked up): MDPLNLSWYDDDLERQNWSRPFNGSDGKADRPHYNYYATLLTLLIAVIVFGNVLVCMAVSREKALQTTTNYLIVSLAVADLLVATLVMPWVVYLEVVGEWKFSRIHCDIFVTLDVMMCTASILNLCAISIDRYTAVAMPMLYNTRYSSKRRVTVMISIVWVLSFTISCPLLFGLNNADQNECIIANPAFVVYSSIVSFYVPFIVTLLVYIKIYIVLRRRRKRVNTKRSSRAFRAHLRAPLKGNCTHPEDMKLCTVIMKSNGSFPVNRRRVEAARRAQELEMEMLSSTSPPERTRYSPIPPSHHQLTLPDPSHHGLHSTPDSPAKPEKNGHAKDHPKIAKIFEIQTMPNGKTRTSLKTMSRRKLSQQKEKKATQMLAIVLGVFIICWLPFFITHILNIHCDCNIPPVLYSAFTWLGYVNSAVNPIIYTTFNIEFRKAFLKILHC
#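 PathHunter beta-arrestin assay in DiscoveRx D2 cells. Compounds were added with an EC20 of dopamine (50 nM final) for 90 min at 37 deg C. Luminescence was read 1 h after detection reagent, with 57 uM dopamine as the EC100 control.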
# D2 agonist: activates the human D2 dopamine receptor; P14416; DiscoveRx PathHunter D2 beta-arrestin, luminescence, 90 min; 100% = 57 uM dopamine signal; hit rate 0.084% among 360,000; activation, % (no concentration beside the values); in the data active = activation above about 40%; inconclusive = about 15% to 40%; inactive = below about 15%; also: compound concentration not given in the record; the text of the record calls up to 30% inactive
#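 DiscoveRx PathHunter D2 beta-arrestin cells (2,100/well) attached overnight, then compound-stimulated 90 min at 37 C in HBSS/10 mM HEPES/0.1% Tween-20 buffer; beta-galactosidase complementation read by luminescence after 1 h at ambient temperature. Dopamine 57 uM final (EC100) as control.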
# PINK1 modulator: modulators of PINK1 expression. PINK1 immunofluorescence, high-content cytometry, 24 h. Potency, µM (top dose mostly 76.6 µM), without a hit: at the highest dose activation (PINK1 increase), actives largely listed as activators. hit rate 0.2% among 410,000; active = well fitted activation curve with a large enough effect; inconclusive = small, poorly fitted or top-dose-only effect; inactive = flat fitted curve, though single readings scatter; cell line not stated here;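 also: potency is read from the fitted curve at half-maximal effect; % of control where 0% means no effect; nearly all actives have a fitted effect of over 65% in size; a mitochondrial uncoupler was the plate control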
#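 PINK1 protein, normally rapidly degraded, was detected by immunofluorescence after 24 hour compound treatment of a stable cell line. Titration data (5 concentrations) came from laser-scanning cytometry, with CCCP-treated wells as controls.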
# TRPML1 ag: activates the human TRPML1 channel; Q9GZU1; TRPML1-expressing cells, Ca2+ dye fluorescence, FDSS; host cell line not named in the record; reference of the full effect not given here; activation, % (no concentration beside the values); hit rate 0.12% among 410,000; AID 624414; in the data active = activation above about 50%; inconclusive = about 30% to 50%; inactive = below about 30%; also: 0% is about no effect; the text of the record puts the active cut at 80%
# Target sequence (Q9GZU1 whole entry, looked up): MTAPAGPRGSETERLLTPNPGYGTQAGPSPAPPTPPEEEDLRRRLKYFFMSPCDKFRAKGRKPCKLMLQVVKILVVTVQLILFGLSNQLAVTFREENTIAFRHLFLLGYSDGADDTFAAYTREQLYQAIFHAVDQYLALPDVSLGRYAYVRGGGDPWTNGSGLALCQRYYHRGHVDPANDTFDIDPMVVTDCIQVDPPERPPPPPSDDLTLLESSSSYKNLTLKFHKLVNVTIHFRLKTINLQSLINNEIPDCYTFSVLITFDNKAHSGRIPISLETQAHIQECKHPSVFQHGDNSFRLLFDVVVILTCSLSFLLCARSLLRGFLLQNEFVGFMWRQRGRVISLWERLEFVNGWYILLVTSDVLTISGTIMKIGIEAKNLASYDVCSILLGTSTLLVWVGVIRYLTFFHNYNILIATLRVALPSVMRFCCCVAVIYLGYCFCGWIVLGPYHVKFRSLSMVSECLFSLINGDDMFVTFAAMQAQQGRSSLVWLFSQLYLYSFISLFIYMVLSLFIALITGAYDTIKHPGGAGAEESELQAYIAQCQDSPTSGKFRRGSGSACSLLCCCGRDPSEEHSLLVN
#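 TRPML1-DL cells, Tet-induced overnight (~16 h, 37 degrees C), loaded 45-90 min at room temperature with Ca8 no-wash calcium dye plus quencher. FDSS fluorescence: 10 s baseline, compound pin-transfer, 110 s agonist read, then EC80 54-4 (4uM final) and 110 s antagonist read.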
# CtBP-E1A inh: blocks the CtBP interaction with E1A; AlphaScreen GST-E1A/His-CtBP binding, 1536-well; hits give low values; control for the full effect not named in the record; activity change, % (no concentration beside the values); hit rate 0.49% among 340,000; AID 651724; in the data active means activity change below about -65%; inconclusive means about -30% to -65%; inactive means above about -30%; also: % is scaled to controls: 0 for no effect and ±100 for the full control effect; compound concentration not given in the record
#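 In 5 uL wells, 23 nL compound meets equimolar GST-E1A and His-CtBP (5X stock 125 nM each) for 2 h, 37 °C. Beads (5X, 50 ug/mL) then 1 h, 37 °C, dark.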
# Starred values were filed as active, the others as inactive; ? = inconclusive; · = not tested or not shown; & = joins results of further samples; [ ] = remark or other dose.
SMILES,Six1-Eya2 inh,D2 PAM,D2 agonist,PINK1 modulator,TRPML1 ag,CtBP-E1A inh
CC(C)OCCCNc1ncc2c(n1)CC(c1cccs1)CC2=O (configuration not stated),-1,1,0.9,-3.1%,0.7,5
Cn1c(=O)cc(Nc2ccccc2)[nH]c1=O,-6,-1,-1.2,0.3%,-0.2,3
O=C1CC(N2CCN(C/C=C/c3ccccc3)CC2)C(=O)N1CCc1ccccc1 (configuration not stated),-12,-30,0.5,-0.2%[38.3 µM],-0.3,-10
O=c1oc(-c2cccs2)nc2sc3c(c12)CCCCC3,7,12,-0.7,·,0.5,14
Cc1cccc2c1N(C(=O)CN1C(=O)c3ccccc3C1=O)C(C)(C)c1ssc(=S)c1-2,?,-19,-3.0,1.4%,0.8,?
O=C(NC(=S)NCC1CCCO1)C(c1ccccc1)c1ccccc1 (configuration not stated),0,-6,-2.9,13%,6.0,-6
OC(c1nc2ccccc2[nH]1)C(O)C(O)C(O)c1nc2ccccc2[nH]1 (configuration not stated),-9,-13,1.5,7.0%,-0.2,0
CC(=O)c1ccc(N2CCN(C(=O)C3CCN(S(=O)(=O)c4ccc5c(c4)CC(C)N5C(=O)C4CC4)CC3)CC2)cc1 (configuration not stated),-6,-6,-1.1,-0.5%,-0.7,-11
COCCNC(=O)CN(C(=O)CCC(=O)Nc1ccccn1)c1ccc(F)cc1,5,-1,-0.2,2.8%,-0.6,7
O=S(=O)(c1ccc(-c2nnc(SCc3ccccc3)o2)cc1)N1CCCC1,-2,5,-1.5,6.4%,-0.3,7
CC(Nc1nc(-c2ccc(Cl)cc2)cs1)c1nc2cc(Cl)c(N3CCCCC3)cc2n1CCOCCO (configuration not stated),-5,-7,-1.8,9.6%,0.2,?
CCCNc1nc2ccccc2n2c(C)nnc12,-21,-6,-1.4,3.5%,0.0,-11
COc1ccc(-c2csc(Nc3cccnc3)n2)cc1OC,-10,-13,-1.6,1.0%,2.4,-1
Cc1cc2nc3n(c2cc1C)CC1CC(C(=O)NCc2ccccc2)N(C)C31 (configuration not stated),1,-8,-0.3,0.0%,0.2,4
Cc1ccc(-n2nc(C)c3c(C)c(CCC(=O)NCc4ccco4)c(C)nc32)cc1,0,-2,-1.7,7.2%,1.3,-25
CN(C)CCN(C(=O)c1ccc2ccccc2c1)c1nc2cc3c(cc2s1)OCO3,?,-52,-4.1,0.7%,-0.2,-25
Cc1cccc(C(=O)NNC(=O)c2cccc([N+](=O)[O-])c2)c1,2,-7,3.4,-1.0%,-1.1,-27
O=C(Oc1ccc(F)cc1)c1cccnc1,1,-2,-9.7,1.0%,0.8,·
CCOC(=O)C1CCCN(C(=O)c2ccc(C)c(NC(=O)C3=C(C)OCCS3)c2)C1 (configuration not stated),0,-2,2.7,-0.4%,0.7,1
CCOc1ccc(OCC)c(NC(=O)C2COc3ccccc3O2)c1 (configuration not stated),-3,-5,-1.7,-1.6%,0.6,-6
O=C(Nc1ccc(OC(F)(F)F)cc1)c1cnccn1,-2,-1,2.0,5.1%,0.2,9
Cc1nnc(NC(=O)c2ccc(S(=O)(=O)N3CCCCC3C)cc2)o1 (configuration not stated),-18,-2,-0.4,-3.1%,-0.4,-30
CCOC(=O)N1CCN(Cc2nc(N)nc(Nc3ccc(C)cc3)n2)CC1,-9,0,0.4,-1.9%[38.3 µM],2.6,-3
CS(=O)(=O)NNC(=O)c1csc(Cc2c(Cl)sc3ccc(Cl)cc23)n1,-1,-8,-20,9.6%,0.7,5
COc1ccc(C2CC(c3ccc(Br)cc3)=NN2C(=O)CSC2=NN3CCCC(=O)N=C3S2)cc1 (configuration not stated),6,-19,-0.8,-0.9%,0.4,9
SMILES,Six1-Eya2 inh,D2 PAM,D2 agonist,PINK1 modulator,TRPML1 ag,CtBP-E1A inh
COc1cc(-n2c(=O)c3ccccc3n(CC(=O)c3ccccc3)c2=O)cc(OC)c1OC,4,-1,-5.3,1.1%,·,11
Cc1ccc(CN2CCC(N3CCC(C(=O)NCC4CCCO4)CC3)CC2)o1 (configuration not stated),-6,-9,3.9,-1.9%,-0.7,-6
Cc1c(C(=O)N2CCN(c3ccccn3)CC2)sc2ncnc(N3CCN(c4ccccc4)CC3)c12,-30,-7,-2.1,1.7%,1.3,-15
CCCn1c(SCC(=O)Nc2cc(C)on2)nc2c1c(=O)n(C)c(=O)n2C,0,-1,0.5,1.4%[38.3 µM],-0.6,9
COC(=O)c1sc(NC(=S)NC(=O)c2ccccc2C)nc1C,-9,-3,-4.8,2.7%,?,0
N#Cc1ccc(C(=O)NCC2CCCCC2)cc1,0,1,-17,-0.9%,-0.6,2
O=C(NCCOc1ccccc1)c1ccccc1SCC(=O)N1CCCC1,0,-9,2.5,-1.2%,1.0,-5
CCOC(=O)c1[nH]cnc1C(=O)Nc1ccccc1OC,-24,-11,-3.2,-1.2%,-1.4,-16
C/C(CC(=O)Nc1ccc2c(c1)OCCO2)=N\NC(=O)c1ccc([N+](=O)[O-])cc1Cl,1,12,3.7,1.4%,-0.6,-3
Cn1c(=O)c2c(nc(SCC(=O)O)n2Cc2cccc(C(F)(F)F)c2)n(C)c1=O,-4,3,0.8,4.1%,-0.4,-3
COCCN(CC(=O)Nc1cccc(C)c1)S(=O)(=O)c1ccc(S(=O)(=O)N2CCCC2)cc1,23,-1,-3.6,9.0%,2.2,3
CCCSc1cc(NCCOC(=O)CCC)c([N+](=O)[O-])c2nonc12,-23,-33,-5.0,1.5%,3.9,-2
O=S(=O)(/N=C(\Sc1ccc(Cl)cc1)c1ccccc1)c1ccccc1,4,9,-4.3,2.0%,-0.1,10
COc1cc(C(=O)Nc2ccc3oc(-c4cccnc4)nc3c2)cc(OC)c1OC,-4&1,10,2.9,2.2%&0.8%,0.0&-0.5,1
O=C(COc1cccc(NC(=O)c2ccco2)c1)c1ccccc1,-7,-8,-5.6,-2.0%,-0.4,3
CC1CCN(c2c(NCc3ccc(C(=O)NCc4cccnc4)cc3)c(=O)c2=O)CC1,-5,-10,-5.3,0.5%,-0.4,1
CCCc1nc2ccccc2c(=O)n1NC(=O)c1c(O)c2ccccc2[nH]c1=O,-5,-7,6.2,5.5%[38.3 µM],0.7,-3
Cc1ccc2c(CC(=O)OC(C)C(=O)NCc3ccc4c(c3)OCO4)coc2c1 (configuration not stated),2,15,-1.2,-2.7%,4.5,-1
CC1CCCC12NC(=O)NC2=O (configuration not stated),3,-1,-3.7,-3.8%,-0.4,-1
Cc1cc(C(=O)Nc2cccnc2Cl)on1,6,26,-2.4,-0.9%,-0.1,5
O=C(COC(=O)/C=C/c1cccs1)NC1CCCCC1,4,-12,-2.7,-0.5%,-0.5,1
CN(C)S(=O)(=O)N1CCC(Oc2cccc(C(=O)NCCCC3CCCC3)c2)CC1,-3,-8,5.5,1.4%,0.4,·
CCCCOC(=O)Nc1cc(Cl)ccc1C,-12,-1,-4.2,17%,1.8,31
CC(C)Cc1nnc(NC(=O)CN2C(=O)NC3(CC(C)CC(C)(C)C3)C2=O)s1 (configuration not stated),-5,5,-5.3,-1.3%,-0.7,5
O=C(c1cc(F)ccc1F)C1CCCN(C(=O)CCN2CCCCO2)C1 (configuration not stated),1,-4,-0.3,0.9%,2.5,7

# Molecules above with an aryl thioether with sulfur outside any ring (five):
SMILES,Six1-Eya2 inh,D2 PAM,D2 agonist,PINK1 modulator,TRPML1 ag,CtBP-E1A inh
O=S(=O)(c1ccc(-c2nnc(SCc3ccccc3)o2)cc1)N1CCCC1,-2,5,-1.5,6.4%,-0.3,7
CCCn1c(SCC(=O)Nc2cc(C)on2)nc2c1c(=O)n(C)c(=O)n2C,0,-1,0.5,1.4%[38.3 µM],-0.6,9
O=C(NCCOc1ccccc1)c1ccccc1SCC(=O)N1CCCC1,0,-9,2.5,-1.2%,1.0,-5
Cn1c(=O)c2c(nc(SCC(=O)O)n2Cc2cccc(C(F)(F)F)c2)n(C)c1=O,-4,3,0.8,4.1%,-0.4,-3
CCCSc1cc(NCCOC(=O)CCC)c([N+](=O)[O-])c2nonc12,-23,-33,-5.0,1.5%,3.9,-2

# New compounds follow
SMILES,Six1-Eya2 inh,D2 PAM,D2 agonist,PINK1 modulator,TRPML1 ag,CtBP-E1A inh
COc1cccc(NC(=O)CN(C)C(=O)c2ccc(N3CCCCC3)c([N+](=O)[O-])c2)c1,-21,-7,-3.3,1.3%,0.9,-11
COc1ccc2cc(-c3nc4ccccc4n3C)c(=O)oc2c1,9,-3,0.9,·,-0.3,6
O=C(N/N=C/c1cn(-c2ccccc2)nc1-c1cc2ccccc2o1)c1ccccc1Br,-26,-8,-2.8,1.2%,0.1,0
NC(=O)c1ccc(C(F)(F)F)n(Cc2cccc(Cl)c2)c1=O,2,-1,1.5,2.2%[38.3 µM],0.1,2
Cc1ccccc1CNC(=O)CN(c1ccccc1Cl)S(C)(=O)=O,-1,-12,-4.1,1.8%,-0.6,3
Cc1n[nH]c(=O)c2c(NC(=O)CSc3nc4ccccc4c(=O)n3CCCOC(C)C)oc(C)c12,-8,-4,-7.6,1.1%,0.7,7
COc1ccc(S(=O)(=O)N2CCOCC2)cc1NC(=O)CC1CCCC1,8,-8,2.0,-2.8%,-0.4,4
CCCNC1CCS(=O)(=O)C1 (configuration not stated),8,-8,-1.6,-2.5%,1.8,5
CC1CCCCN1C(=O)Cn1cnc2c1c(=O)n(C)c(=O)n2C (configuration not stated),-3,-3,-3.8,1.0%,0.0,·
COc1ccc(NC(C)=O)cc1NC(=O)CSc1nnc(-c2ccncc2)n1C,2,-13,-2.7,6.9%,-0.4,-4
Cc1cc(NC(=O)CN2C(=O)NC(C)(CC(C)C)C2=O)no1 (configuration not stated),1,-4,-1.7,-1.3%,-0.2,4
CC(=O)c1ccc(N2CCN(C(=O)c3ccc4c(c3)OCO4)CC2)cc1,4,14,0.1,4.2%,0.7,1
CC(=O)N1CCn2c3ccc(C)cc3c3cccc1c32,4,5,-0.2,-2.9%,1.4,-1
Cc1cccc(C(=O)Nc2ccc(C(=O)N/N=C/c3cccc(C)n3)cc2)c1,-29,-2,-2.2,0.2%,1.2,-20
CCN1CCN(c2ccc(S(=O)(=O)N3CCOCC3)cc2NC(=O)COc2ccc(F)cc2Cl)CC1,-1,0,-1.7,-0.9%,0.1,0
O=C(CCc1ccccc1)Nc1ccc(F)c([N+](=O)[O-])c1,4,-7,-0.5,0.8%,1.3,6
COc1ccc(-c2c(C#Cc3ccccc3)c3ccccc3n2C)cc1,8,-5,-1.1,10%,0.6,·
O=C(COc1ccc(Br)cc1)NCCCNC(=O)c1ccncc1,2,-4,4.6,0.7%,0.4,3
Cc1ccc(S(=O)(=O)N2CCOC2CNC(=O)C(=O)NCC(C)C)cc1 (configuration not stated),1,-8,-6.8,1.3%,0.6,-2
CCn1c(=N)n(CC(O)COc2cccc(C)c2)c2ccccc21 (configuration not stated),1,-15,-2.9,-18%[38.3 µM],-1.0,5

# Shown tab-delimited: 2 of the compounds above
Compound	Six1-Eya2 inh	D2 PAM	D2 agonist	PINK1 modulator	TRPML1 ag	CtBP-E1A inh
Cc1ccc(S(=O)(=O)N2CCOC2CNC(=O)C(=O)NCC(C)C)cc1 (configuration not stated)	1	-8	-6.8	1.3%	0.6	-2
NC(=O)c1ccc(C(F)(F)F)n(Cc2cccc(Cl)c2)c1=O	2	-1	1.5	2.2%[38.3 µM]	0.1	2
